Assay outcomes from PubChem.
CSC inhib – blocks cancer stem cells. cancer stem cell-like cells viability, luminescence. inhibition, % at 7.5 µM. 300,000 compounds, 1.1% hits;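 active means mean at 75% or more and at least half the replicates too; tested in HMLE shEcad cells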;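 further: 0% = median of negative and 100% = median of positive control wells; the first replicate is given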
Rce1 inhib – blocks yeast Ras-converting enzyme; Q03530; yeast membranes, quenched prenylated peptide cleavage fluorescence; calls only; 290,000 compounds, 0.27% hits;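 active means fall in fluorescence gain of 50% or more versus controls, with final raw signal at or below 3038400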;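 further: plate controls were neutral control wells for no effect and wells lacking membranes for full effect; tested at 10 µM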
Target sequence (Q03530 whole entry, looked up): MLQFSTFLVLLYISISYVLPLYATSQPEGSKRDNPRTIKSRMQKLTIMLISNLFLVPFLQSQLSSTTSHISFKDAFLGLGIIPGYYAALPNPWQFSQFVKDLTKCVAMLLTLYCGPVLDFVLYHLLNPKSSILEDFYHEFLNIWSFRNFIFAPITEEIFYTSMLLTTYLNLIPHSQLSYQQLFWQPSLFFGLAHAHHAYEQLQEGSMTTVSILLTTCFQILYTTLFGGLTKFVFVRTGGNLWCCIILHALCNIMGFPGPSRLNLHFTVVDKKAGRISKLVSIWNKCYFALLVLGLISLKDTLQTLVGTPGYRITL
UUG fidelity – yeast start codon fidelity modulation; S. cerevisiae UUG-firefly luciferase reporter, luminescence/redox ratio; 350,000 compounds, 0.13% hits; activity score, % at 18.7 µM;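 active means replicate mean at a twofold rise or more, about +100% in these data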;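 further: firefly luciferase made from a UUG start codon reports start codon fidelity; reporter light over untreated wells divided by growth signal over untreated wells; some hits fall short of that in this replicate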
eIF4H FP inh – inhibitors of RNA binding by human eIF4H | 290,000 compounds, 0.94% hits | inhibition, % at 35 µM | AID 2012 | eIF4H fluorescence polarization binding assay;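 active means 50% or more with normal probe brightness, or confirmed in later tests; about a fifth of its hits are not listed in these tables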;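 further: calls also rest on retests at 20 µM and on dose response follow-up; 0% = protein and probe with vehicle and 100% = probe without protein; strong numbers were not always called active; many hits fall short of the cut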
HIV Env fusion – HIV envelope-mediated fusion inhibition; HeLa-JRFL Env/CEM21 cell fusion, luciferase; inhibition, % at 12.3 µM; 360,000 compounds, 1.1% hits; AID 651610;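 active means mean replicate inhibition score of at least 50 and every replicate individually at or above 50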;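 further: 0% = plate neutral controls and 100% = maraviroc near 300 nM; one replicate is shown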
PABP polyA inh – blocks human PABP binding to poly(A) RNA | fluorescence polarization | inhibition, % at 35 µM | 290,000 compounds, 1% hits;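 active means 50% or more with normal probe brightness, or confirmed in later tests; about a fifth of its hits are not listed in these tables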;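 further: calls also rest on retests at 20 µM and on dose response follow-up; controls were probe without protein and protein plus probe with vehicle; some compounds called inactive have numbers as strong as hits; many hits fall short of the cut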
MT1-MMP act inh – MT1-MMP (human) activation inhibition; P50281; 360,000 compounds, 0.061% hits; GFP/RFP ratio change, % at 20 µM; HT1080 RFP-PRO-GFP cells, GFP/RFP ratio fluorescence, overnight; percent of plate control window, DMSO zero; AID 651647;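 active means GFP/RFP ratio change of at least 30% with cell ATP level not reduced by more than half and red fluorescence within 50% of control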; further: strong numbers were not always called active
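Assay system: HT1080 cells carrying an RFP-PRO-GFP reporter | Dosing: Single dose of 20 µM compound, 1% DMSO final | Incubation: Cells overnight before dosing, compound overnight, 37 °C, 5% CO2 | Evaluation: GFP/RFP fluorescence ratio | Control set: DMSO and RFP-L50D-GFP cell wells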
eIF4H FP inh retest – also measured in eIF4H FP inh; calls as there; inhibition, %; compound at 20 µM; confirmation average;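 mean of two retest wells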
PABP polyA inh retest – further read-out of PABP polyA inh, marked with its call; inhibition, %; compound at 20 µM; confirmation repeats;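 mean of two retest wells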
MT1-MMP act inh RFP – recorded beside MT1-MMP act inh, whose call it bears; RFP signal change, %; measured here: RFP expression control read;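 0 = vehicle wells; hits needed this value within 50% of zero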
* = called active by the depositor; i = inactive; · = not tested or not shown; & = joins results of further samples; [ ] = another dose, or the depositor's remark.

SMILES	CSC inhib	Rce1 inhib	UUG fidelity	eIF4H FP inh	HIV Env fusion	PABP polyA inh	MT1-MMP act inh	MT1-MMP act inh RFP	others
CCCCNC(=O)c1cn(CC)c2cc(N3CCN(C(=O)c4ccco4)CC3)c(F)cc2c1=O	2	i	-6	1	36	13	9	-1
Cc1ccc(S(=O)(=O)/N=C(/Nc2ccc(F)cc2F)c2ccc(F)cc2)cc1	-18	i	-26	0	-6	6	-1	2
O=C(Nc1ccccc1)c1ccc(NCCN2C(=O)CCC2=O)c([N+](=O)[O-])c1	-4	i	·	-6	6	-10	4	0
Clc1ccc(/C=N\Nc2ccccc2)cc1	8	i	-20	1	-3	4	-2	-1
O=C(Nc1ccc(C(O)c2ccccc2)cc1)[C@H]1C[C@H](O)[C@@H](CO)O1 (some centres undefined)	·	·	-10	·	27	·	0	7
CCCC(=O)c1cc(F)c(N2CCN(CCC#N)CC2)cc1C	45	i	-18	2	-22	-9	1	-2
CCOc1ccccc1NC(=S)N(CCCN1CCOCC1)Cc1cn(C)c2ccccc12	-13	i	-23	-4	17	-15	·	·
CCN(c1ccccc1)S(=O)(=O)c1ccc(C(=O)NCc2ccccn2)cc1	·	·	-27	·	-8	·	1	1
CC1Sc2ccc(S(=O)(=O)NCCc3ccc(Cl)cc3)cc2NC1=O (centres undefined)	-27	i	-8	-4	6	-6	0	3
O=C(COC(=O)c1ccc(S(=O)(=O)N2CCCCC2)cc1)Nc1ccccc1Cl	·	·	-14	·	-3	·	0	4
O=C(Nc1cccn(Cc2c(F)cccc2Cl)c1=O)NC1CCCCC1	57	i	·	6	-25	1	-20	-20
Cc1ccc(N(C)C(=O)C2CCCN2S(=O)(=O)c2cccc3nsnc23)cc1 (centres undefined)	9	i	4	-4	5	-10	-2	2
CCCCCCn1c(C(C)O)nc2ccccc21 (centres undefined)	0	i	-18	-3	·	25	-1	1
COc1ccc(C(=O)Nc2ccc3nc(C)sc3c2)cc1OC	13	·	·	-7	2	2	2	1
COc1ccc(Cl)cc1S(=O)(=O)N1CCC(C(=O)NCC2CCCO2)CC1 (centres undefined)	-8	i	5	-1	-10	-5	-1	1
CCCOc1ccc(/C=N/Nc2ccccn2)cc1OC	·	i	-50	-4	-125	17	4	3
COc1ccc(S(=O)(=O)N(CC(=O)N/N=C/c2cccs2)c2ccc(C)cc2)cc1OC	-7	i	-2	2	·	-17	-3	-2
CCCCN(C)C(=O)C1CCC(CNS(=O)(=O)c2ccc3c(c2)CC(C)N3C(=O)C2CC2)CC1 (centres undefined)	-3	i	7	-7	22	-4	3	-18
O=C(c1cc(COc2c(F)cccc2F)on1)N1CCC(c2ccccc2Cl)C1 (centres undefined)	10	i	·	-2	-33	-4	-1	4
CC(C(=O)O)n1cnc2sc3c(c2c1=O)CCCC3 (centres undefined)	2	i	·	-2	-1	-3	0	2
CCOC(=O)C1=C(C)Nc2nc(C)nn2C1c1ccc(OCC)c(OC)c1 (centres undefined)	-1	i	-4	-8	6	2	0	0
O=C(NCC1CCCO1)c1ccc(COc2ccc(F)cc2)o1 (centres undefined)	-2	i	-10	4	·	7	-2	-5
CN(CC(=O)Nc1ccccc1C(=O)N1CCCC1)S(=O)(=O)c1ccc(Cl)cc1	-7	i	6	-3	-13	-6	-2	5
Cc1ccc(Cn2c(=O)c3c(ncn3C)n(C)c2=O)cc1	-2	i	-2	-7	-15	5	3	6
COc1ccc(CC(N)c2csc(NC(=O)c3ccc(F)cc3)n2)cc1 (centres undefined)	·	·	-14	·	-7	·	6	-6
S=C(c1ccc(-c2ccccc2)o1)N1CCCCC1	·	i	·	12	-140	-1	3	0
C[C@@H]1CN([C@@H](C)CO)C(=O)CCCn2nncc2CO[C@@H]1CN(C)C(=O)c1ccc(N2CCN(C)CC2)cc1	·	·	7&8	·	10	·	-2	2
O=C(O)CCC(=O)NNC(=O)CCCOc1ccc(Cl)cc1Cl	-2	i	-11	3	·	4	-2	4
COC(=O)/C=C1\SC(N)=NC1=O	4	·	·	-4	3	3	-1	-1
CCN(C(=O)c1cccs1)c1nnc(-c2ccncc2)s1	10	·	1	0	-130	-9	-2	-4
O=C(Nc1ccc(Cl)cc1)NC1(C(=O)NCCCN2CCOCC2)CCCCC1	-7	i	-1	-4	·	-2	-2	-2
COC(=O)CSc1nc2c(c(=O)n(C)c(=O)n2C)n1CCC(C)C	6	·	-3	-5	·	5	1	-2
CC(=O)c1c(O)c(C)c(-c2ccccc2)n(-c2ccccc2)c1=O	41	i	16	1	·	-9	-5	-1
Cc1ccc(C)c(NC(=S)NNC(=O)c2sccc2C)c1	-14	i	1	15	-68	0	5	0
Cc1cc(Br)cn2c(Cc3ccsc3)c(-c3ccc(F)cc3)nc12	·	·	11	·	-44	·	-3	8
CCCc1ccc2oc(C(=O)NCc3nnc(C)o3)c(C)c2c1	·	i	-20	-11	-79	-6	0	2
COc1ccc(NC(=O)CN2C(=O)C(C)Oc3ccc(C)cc32)cc1 (centres undefined)	3	i	-8	-2	20	4	1	-1
O=S(=O)(NCC(c1cccs1)N1CCc2ccccc2C1)c1ccccc1 (centres undefined)	-9	i	·	·	20	·	1	-4
O=C(O)C1C2C=CC(C2)C1C(=O)NCc1ccccn1 (centres undefined)	-11	i	·	8	·	11	·	·
Cc1c(NC(=O)COC(=O)CSc2ccc([N+](=O)[O-])cc2)c(=O)n(-c2ccccc2)n1C	·	·	-5	·	3	·	6	1
CC1(C(=O)Nc2cccc(C(F)(F)F)c2)Cc2c(-c3ccccc3)ccnc2O1 (centres undefined)	·	·	-11	·	8	·	4	0
COc1cc2[nH]c(Cl)c([N+](=O)[O-])c2cc1OC	-9	i	-21	4	6	18	0	4
CS(=O)(=O)N1CCN(C(=O)Cc2ccccc2Cl)CC1	-9	i	-3	-1	10	-1	3	3
Cc1nn(-c2ccccn2)c2c1-c1nc(N3CCOCC3)ncc1CC2	2	i	·	39	·	27	-2	-3
Cc1cccc(NC(=O)Nc2nnc(-c3ccccc3)o2)c1	-13	i	-19	0	-7	0	1	2
O=C(NNC(=S)Nc1cccc(C(F)(F)F)c1)c1ccncc1	·	·	-37	·	1	·	0	6
CCN1CCN(S(=O)(=O)c2ccc(Cl)c(C(=O)N(CCc3ccccc3)Cc3ccccc3)c2)CC1	·	·	10	·	-22	·	8	-8
COc1ccc(NC(=O)c2cccn(CC=C(C)C)c2=O)cc1	-20	i	·	-6	-1	-6	2	-8
COCCNC(=S)N/N=C(\C)c1ccccc1F	2	i	·	1	0	6	5	2
CCCCN(CCCC)CC(O)Cn1c2ccccc2c(=O)c2ccccc21 (centres undefined)	5	i	-13	1	2	0	-1	-2
O=C(CCCN1C(=O)c2cccc3cccc(c23)C1=O)OCC(=O)N1CCCCC1	·	·	-24	·	-48	·	-2	3
CCCN(CCC)C(=O)CC(c1ccccc1)C1CCOC(C)(C)C1 (centres undefined)	2	i	·	9	27	-6	-2	0
Cc1ccc(C2(CCNCc3ccc(N(C)C)cc3)CCOC(C(C)C)C2)cc1 (centres undefined)	13	i	·	-2	43	-8	1	-5
CN1CCC(=NNC(=O)CN(c2ccc(Oc3ccccc3)cc2)S(C)(=O)=O)CC1	37	i	-8	-2	13	1	0	5
CCCCCCCNC(=O)C1(CC2CC(c3cccc(Br)c3)=NO2)CCN(C(=O)c2ccccc2)CC1 (centres undefined)	-4	i	-13	·	29	·	2	-4
COc1cc(/C=C2\C(=O)NN(c3ccc(C)cc3)C2=O)cc([N+](=O)[O-])c1O	·	i	·	-1	-5	12	-1	2
CCc1nnc(NS(=O)(=O)c2ccc(NC(=O)c3ccco3)cc2)s1	-12	i	-1	7	8	6	1	7
O=C(NC1CCC(O)CC1)c1cc(-c2ccco2)nc2ccccc12 (centres undefined)	-6	i	·	85*	7	4.8*	-1	2	eIF4H FP inh retest=92*;PABP polyA inh retest=73*
O=C(CCNC(=O)c1ccco1)NCCN1C(=O)S/C(=C\c2ccc(F)cc2)C1=O	-16	·	-17	·	·	·	1	2
CC(=O)C1=C(C)NC(SCC(N)=O)=C(C#N)C1C (centres undefined)	-7	i	·	3	·	4	2	2

Part of the list above in order of molecular weight, ascending.
SMILES	CSC inhib	Rce1 inhib	UUG fidelity	eIF4H FP inh	HIV Env fusion	PABP polyA inh	MT1-MMP act inh	MT1-MMP act inh RFP	others
CC(=O)C1=C(C)NC(SCC(N)=O)=C(C#N)C1C (centres undefined)	-7	i	·	3	·	4	2	2
CCCN(CCC)C(=O)CC(c1ccccc1)C1CCOC(C)(C)C1 (centres undefined)	2	i	·	9	27	-6	-2	0
CCCCCCCNC(=O)C1(CC2CC(c3cccc(Br)c3)=NO2)CCN(C(=O)c2ccccc2)CC1 (centres undefined)	-4	i	-13	·	29	·	2	-4

(listing goes on)
SMILES	CSC inhib	Rce1 inhib	UUG fidelity	eIF4H FP inh	HIV Env fusion	PABP polyA inh	MT1-MMP act inh	MT1-MMP act inh RFP	others
Cc1ccc(NC(=O)c2cc(=O)n(Cc3ccccc3)c(=O)[nH]2)cc1C	5	i	·	-9	14	0	3	4
COC(=O)c1[nH]c2ccc(C)cc2c1NS(=O)(=O)c1ccc(F)cc1	-13	i	-8	3	·	10	21	-4
COc1ccc(OC)c(C2=Nn3c(nnc3-c3cccc(OC(C)C)c3)SC2)c1	23	i	-21	-1	29	-7	-11	-8
OCCCc1nc2n(n1)C(c1ccccc1)C=C(c1ccc(F)cc1)N2 (centres undefined)	-6	i	-24	-2	-77	10	-22	-3
COCCC(=O)Nc1ccc2c(c1)CN(C(=O)c1ccc(CSC)o1)CC2	-8	i	10	-8	-13	8	·	·
Cc1ccc(C(=O)NC(=O)CSc2nnc(C)s2)cc1	-10	i	-13	-6	-14	6	-3	1
O=C(O)c1cccc(S(=O)(=O)N2CCC(Cc3ccccc3)CC2)c1	-3	i	8	-2	-21	-2	-2	-5
Cn1c(=O)c2c(nc(Oc3ccc4ccccc4c3)n2C)n(C)c1=O	6	i	-5	-7	102*	-1	-9	-5
O=C(NC(c1ccc(Cl)cc1)c1cnccn1)C1CCN(Cc2ccc(Cl)cc2)CC1 (centres undefined)	·	·	2	·	16	·	-5	-3
CC(C)n1c(SCC(=O)N2CCN(C(=O)c3ccco3)CC2)nc2c1c(=O)n(C)c(=O)n2C	-4	i	9	-6	-1	6	-4	1
O=C(On1c(-c2ccccc2)nc2ccccc2c1=O)c1ccco1	9	i	-15	0	·	9	3	2
CC(=O)Nc1cc(C(=O)OCC(=O)c2ccc(C)cc2)ccc1C	-9	i	-11	-5	-38	2	-7	1
CCOC(=O)c1ccc(NC(=O)C2CCN(S(=O)(=O)CC)CC2)cc1	-5	i	1	8	-19	-9	2	13
c1ccc(-c2csc3ncnc(N4CCc5ccccc5C4)c23)cc1	34	i	-10	-2	2	9	-7	-18
COc1cc(CC(=O)NCCc2ccc(OCc3ccccc3)cc2)c([N+](=O)[O-])cc1OC	-1	i	-5	4	·	4	3	-1
Cc1ccc(C2CN=NC23CCc2ccccc2C3=O)cc1 (centres undefined)	17	i	-60	-6	-1	-2	2	3
Cc1cccc(NC(=O)CC2Nc3cccc4cccc(c34)NC2=O)c1 (centres undefined)	-5	i	·	113*	·	88*	4	0
CCC1CCC2(CC1)SCC(=O)N2c1ccccc1 (centres undefined)	-7	i	-6	-8	-6	-8	2	-4
CC(C)NC(=O)N(C)C[C@H]1Oc2c(NC(=O)C3CC3)cccc2C(=O)N([C@H](C)CO)C[C@@H]1C	-11	·	-1&-11	·	3[16.7 µM]	·	2	2
Cc1ccc(C(=O)C[n+]2ccc(-c3nnc4n3CCC4)cc2)cc1	-15	i	·	-7	4	8	1	2
Cn1cccc2[nH]c(=O)nc1-2	-3	i	·	-3	0	41	0	5
